KCNQ2 inh: KCNQ2 channel blockers in CHO-K1 cells – cell-based, FluxOR thallium flux, B-score, primary screen (AID 2156). O88943. B-score at 10 µM. 20 min; stronger effect = lower value; only compounds with negative scores are shown here; some inactives read as strong as hits. actives 1.1% (n = 310,000);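 active means fluorescence ratio B-score at most minus 3 library SDs, with starting brightness B-score within 2 library SDs, cut at about -5.5 in these data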
Target sequence (O88943 whole entry, looked up): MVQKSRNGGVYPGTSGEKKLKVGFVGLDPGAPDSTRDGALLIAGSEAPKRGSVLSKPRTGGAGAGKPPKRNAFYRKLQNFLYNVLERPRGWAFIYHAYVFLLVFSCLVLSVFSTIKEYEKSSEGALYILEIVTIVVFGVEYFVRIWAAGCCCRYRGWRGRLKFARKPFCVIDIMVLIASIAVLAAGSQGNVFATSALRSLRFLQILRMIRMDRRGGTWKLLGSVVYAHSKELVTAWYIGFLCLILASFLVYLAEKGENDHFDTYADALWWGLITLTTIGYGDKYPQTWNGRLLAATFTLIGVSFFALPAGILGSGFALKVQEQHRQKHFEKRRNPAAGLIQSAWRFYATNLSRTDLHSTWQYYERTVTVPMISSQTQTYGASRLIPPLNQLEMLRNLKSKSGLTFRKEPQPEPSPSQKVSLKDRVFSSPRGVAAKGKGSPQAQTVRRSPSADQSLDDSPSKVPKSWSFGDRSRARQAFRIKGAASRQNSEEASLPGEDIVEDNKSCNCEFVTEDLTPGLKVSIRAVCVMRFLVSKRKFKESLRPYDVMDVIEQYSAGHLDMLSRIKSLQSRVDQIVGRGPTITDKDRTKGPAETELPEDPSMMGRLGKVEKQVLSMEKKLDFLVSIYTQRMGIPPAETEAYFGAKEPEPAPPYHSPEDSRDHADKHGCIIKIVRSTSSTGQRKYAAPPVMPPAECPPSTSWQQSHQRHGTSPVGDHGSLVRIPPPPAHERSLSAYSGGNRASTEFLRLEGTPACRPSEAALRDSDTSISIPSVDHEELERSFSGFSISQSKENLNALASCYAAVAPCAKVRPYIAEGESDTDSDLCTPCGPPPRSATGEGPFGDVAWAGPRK
KCNQ2 inh baseline: recorded beside KCNQ2 inh, whose call it bears; B-score; measured here: initial fluorescence intensity artifact check;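 brightness before thallium and not channel activity; 0 = typical well and far values either way flag optical interference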
Numbers without * were called inactive; i = inactive.

canonical_smiles | KCNQ2 inh | KCNQ2 inh baseline
COc1ccc(N(C(=O)c2cccnc2)S(=O)(=O)c2ccc(Cl)cc2)cc1 | i | 1.6
COc1ccc(S(=O)(=O)N2CCC(C(=O)NC3CC(C)(C)NC(C)(C)C3)CC2)cc1 | i | -1.6
COc1ccc(CNC(=O)C2CCCN(S(=O)(=O)c3cnc[nH]3)C2)cc1 (stereo not given) | i | -1.2
CC(=O)Nc1ccc(S(=O)(=O)NC2CC(=O)N(c3ccc(C)c(C)c3)C2)cc1 (stereo not given) | i | 0.22
Cc1cc(/C=N/NC(=O)c2cccc([N+](=O)[O-])c2)c(C)n1-c1ccc(Cl)cc1Cl | i | -0.27
COC(=O)c1[nH]c2ccc(C)cc2c1NC(=O)CN1CCC(C)CC1 | i | 0.81
Fc1ccccc1CNc1ccc(Cl)c(Cl)c1 | i | -1.6
CC(=O)N1CCN(c2ccc(NC(=O)c3cc(Cl)ccc3Cl)cc2)CC1 | i | -0.54
Cc1ccc(C(c2nnnn2Cc2cccs2)N2CCN(C(=O)c3ccco3)CC2)cc1 (stereo not given) | i | -0.18
CCn1cc(C2=NC(CCSC)CO2)c2ccccc21 (stereo not given) | i | -0.29
Cn1c(N2CCN(c3ccccn3)CC2)nc2c1c(=O)n(Cc1ccccc1Cl)c(=O)n2C | i | 0.01
O=[N+]([O-])c1cc([N+](=O)[O-])c2cc3ccccc3nc2c1 | i | 1
Cc1cc(C)c(-c2cc(NC(=O)CSc3nncn3C)n(-c3ccccc3)n2)cc1C | i | 2.9
CN(C)CCCNCCCNC(=O)/C(=N\O)c1ccccn1 | i | 0.47
O=C(Nc1cccc([N+](=O)[O-])c1)Nc1cccs1 | i | 0.5

Shown with each value named: part of the list above
compound: Fc1ccccc1CNc1ccc(Cl)c(Cl)c1
  KCNQ2 inh: i
  KCNQ2 inh baseline: -1.6
compound: CN(C)CCCNCCCNC(=O)/C(=N\O)c1ccccn1
  KCNQ2 inh: i
  KCNQ2 inh baseline: 0.47
compound: CC(=O)N1CCN(c2ccc(NC(=O)c3cc(Cl)ccc3Cl)cc2)CC1
  KCNQ2 inh: i
  KCNQ2 inh baseline: -0.54
compound: CC(=O)Nc1ccc(S(=O)(=O)NC2CC(=O)N(c3ccc(C)c(C)c3)C2)cc1 (stereo not given)
  KCNQ2 inh: i
  KCNQ2 inh baseline: 0.22

(listing goes on)
canonical_smiles | KCNQ2 inh | KCNQ2 inh baseline
CC(C)NC(=O)c1cc2c(C(F)(F)F)nn(C)c2s1 | i | 0.1
O=S(=O)(NCC(c1ccco1)N1CCc2ccccc2C1)c1ccc(Br)cc1 (stereo not given) | i | 2.7
Cc1ccc(-c2noc(CN(C)C(=O)c3ccc(Br)o3)n2)cc1 | i | 1
COc1cc(/C=C/C(=O)N[C@@H](Cc2c[nH]c3ccccc23)C(=O)O)ccc1O | i | 0.18
COc1cc(OC)cc(-c2nc(-c3ccccc3)no2)c1 | i | -0.62
CCCCOC(=O)c1ccc(N/C(=N\S(=O)(=O)c2ccccc2)c2ccccc2)cc1 | i | 1.9
COc1cc(C)ccc1OCCOCCOc1c(C)cc(C)cc1Br | i | 1.4
CN(C)Cc1cnc2ccc(Cl)cn12 | i | -0.32
CSc1nnc2c3ccccc3n(Cc3ccccc3)c2n1 | i | -1.9
CC1(C)CC(=O)C2=C(C1)C(c1cn(-c3ccccc3)nc1-c1ccccc1)C(C#N)=C(N)O2 (stereo not given) | i | -0.15
O=c1c(C(c2ccc(F)cc2)c2c(O)nc3n(c2=O)CCCS3)c(O)nc2n1CCCS2 | i | -0.15
CO/N=C/C(=N\Nc1ccc(OC)cc1)C(=O)c1ccc(OC)cc1 | i | 0.15
O=C(NCc1cccs1)c1nc(-c2cccs2)no1 | i | -0.39
COc1ccc(CCNC(=O)CCCOc2ccc(C)cc2)cc1OC | i | 1.5
c1cnc(N2CCN(Cc3ccc4c(c3)OCO4)CC2)cn1 | i | 1.4

(more compounds)
canonical_smiles | KCNQ2 inh | KCNQ2 inh baseline
O=C1CCCC(O)=C1N=Nc1ccc2ncsc2c1 | i | -0.45
Cc1ccccc1NC(=S)NCCc1c[nH]c2ccccc12 | i | -0.54
CCCC(=O)NC(c1ccco1)c1cc([N+](=O)[O-])c2cccnc2c1O (stereo not given) | i | 0.46
CCC1CCCCN1CCCNC(=O)c1cc2c(=O)oc3ccc(C)cc3c2s1 (stereo not given) | i | 0.85
COc1cc(/C=C/C(=O)c2ccc3c(c2)OCCO3)cc(OC)c1OC | i | -0.4
O=C(Cc1ccc(Cl)cc1)Nc1nc2ccccc2[nH]1 | i | 0.01
O=S(=O)(c1ccc(F)cc1)n1ccc(-c2cnc(-c3ccccc3)s2)n1 | i | 0.15
COc1ccc(S(=O)(=O)N2CCCN(Cc3cccc(F)c3)CC2)cc1 | i | 2.9
CC(NC(=O)OC1CCCCC1)N1C(=O)C2C3C=CC(C3)C2C1=O (stereo not given) | i | 0.06
CC(=O)c1ccc(N2CCC(c3cc(-c4ccc(Cl)cc4)n[nH]3)CC2)c([N+](=O)[O-])c1 | i | 0.8
COc1cccc(C(=O)Nc2sc3c(c2C#N)CCN(C(C)=O)C3)c1 | i | -0.73
Cc1ccccc1CC(=O)NC1CCCc2ccccc21 (stereo not given) | i | -1.1
CC(NC(=O)C(NC(=O)C1CCCN1C(=O)OC(C)(C)C)C(C)C)C(N)=O (stereo not given) | i | 5.8
CCOC(=O)c1ccc(S(=O)(=O)N2CCN(C(=O)c3cc(=O)c4ccccc4o3)CC2)cc1 | i | -0.81
O=C(Nc1ccc(F)c(F)c1)c1ccccc1-c1ccccc1 | i | -1.4

Following part.
canonical_smiles | KCNQ2 inh | KCNQ2 inh baseline
CC(C)(C)OC(=O)N1CCN(c2ccc([N+](=O)[O-])cc2)CC1 | i | 1.5
O=C(O)CSc1nnnn1-c1ccccc1 | i | 0.17
N/C(=N\OC(=O)c1cc(Cl)ccc1Cl)c1ccccn1 | i | 1.1
Clc1nc2ccccc2nc1-c1ccccc1 | i | -0.24
CC(=O)NS(=O)(=O)c1ccc2c(c1)Cc1cc(S(=O)(=O)NC(C)=O)ccc1-2 | i | 1.3
C[C@@H]1O[C@@H](O[C@H]2[C@H](Oc3cc(O)c4c(c3)OC(c3ccc(O)cc3)CC4=O)O[C@H](CO)[C@@H](O)[C@@H]2O)[C@H](O)[C@H](O)[C@H]1O (stereo not given in full) | i | -0.56
Cc1ccc(NNC(=O)c2c(F)cccc2Cl)cc1C | i | -1.2
Cc1ccc2nc(-c3ccc(NC(=O)COC(=O)c4cncc(Br)c4)cc3)sc2c1 | i | 0.02
C#CCOc1nc(Nc2cccc([N+](=O)[O-])c2)nc(OCC#C)n1 | i | 1.2
COC(=O)c1ccccc1SC(CC(=O)c1ccccc1)c1ccc(F)cc1 (stereo not given) | i | -0.19
O=C(O)c1ccc(Cn2c(SCc3cc(=O)n4cc(Br)ccc4n3)nc3ccsc3c2=O)cc1 | i | -0.16
COc1ccccc1NS(=O)(=O)c1ccc(S(=O)(=O)N2CCOCC2)cc1 | i | -1.1
COCCN(C(=O)CNC(=O)c1cccs1)C(C(=O)NC(C)(C)C)c1ccccc1 (stereo not given) | i | 0.98
CN(C)c1ccc(-c2noc(C3CCN(C(=O)Nc4ccc(Cl)cc4)CC3)n2)cc1 | i | -2.5
COc1cccc(NC(=O)C(OC(=O)c2ccccc2NS(=O)(=O)c2cccs2)c2ccccc2)c1 (stereo not given) | i | -1.5

Additional entries follow:
canonical_smiles | KCNQ2 inh | KCNQ2 inh baseline
CSc1ccc(C2C(C#N)=C(N)Oc3cc4c(cc32)OCO4)cc1 (stereo not given) | i | 0.61
Cc1ccc(-n2nnc3ccccc3c2=O)cc1C | i | 0.23
Nc1ccc2nc3c(=O)[nH]c(=S)[nH]c3nc2c1 | i | 55
O=C(CN1C(=O)/C(=C\C=C\c2ccccc2)SC1=S)Nc1ccc(F)cc1 | i | 1.1
Cc1ccccc1C(=O)NNC(=O)CCC(=O)Nc1cccc(Cl)c1C | i | 0.05
N#CC1(NC(=O)COC(=O)C23CC4CC(CC(O)(C4)C2)C3)CCCCC1 | i | -0.28
Fc1ccc(-c2nc3c(-c4ccc(Cl)cc4)cnn3cc2CCN2CCOCC2)cc1 | i | -0.74
CCOc1ccc(N(CC(=O)NC2CC2)S(=O)(=O)c2ccc(C)cc2)cc1 | i | -0.08
CC(C)c1ccc(/C=C/C(=O)NCCCc2ccccc2)cc1 | i | -0.03
Cc1cccc(-n2c(CNC(=O)c3ccc(S(=O)(=O)N4CCCCC4)cc3)n[nH]c2=S)c1 | i | 0.41
CC(=O)Nc1ccc(C(=O)OCc2ccccc2Br)cc1 | i | -0.66
O=C1CC(Cc2ccc(Cl)cc2)C(=O)N1c1cc(Cl)ccn1 (stereo not given) | i | 1.5
CCCCNC(=O)c1nc2ncc(Br)cn2n1 | i | 0.73
Cc1cn(CCC(=O)Nc2ccccc2N2CCOCC2)c2ccccc12 | i | 0.54
Cc1ccc(NC(=O)C(=O)NCc2ccc(/C=C(/C#N)C(=O)NCc3cccnc3)o2)cc1 | i | 0.29

Additional compounds:
canonical_smiles | KCNQ2 inh | KCNQ2 inh baseline
COC(=O)c1ccccc1NC(=O)C1CC(=O)N(c2ccccc2)C1 (stereo not given) | i | -0.16
C=CCc1ccccc1OCCn1ccnc1 | i | 0.86
N=c1n(CCN2CCOCC2)c2ccccc2n1CC(=O)c1cccc([N+](=O)[O-])c1 | i | 1.7
Cc1cc(=O)oc2c(C)c(OC(C)C(=O)NCCCN3CCOCC3)ccc12 (stereo not given) | i | -0.55
Cn1c(=O)c2c(nc(NCc3ccc4c(c3)OCO4)n2C)n(C)c1=O | i | 0.46
COCC1CCCN(C(=O)c2ccc3oc(Cc4ccc(Cl)cc4)nc3c2)C1 (stereo not given) | i | -0.48
O=C(CCc1nnc(Cc2ccc(-c3ccccc3)cc2)o1)NCCc1cccnc1 | i | 1.5
N=c1c2c(-c3ccccc3)c(-c3ccccc3)n(Cc3ccccc3)c2ncn1CCCO | i | -2.4
Cc1cc(/C=C\c2ccccc2)nc2ccccc12 | i | 1.4
CC(N=Cc1nc(-c2ccccc2)oc1O)c1ccccc1 (stereo not given) | i | -0.02
CC(C)(C)OC(=O)NC(Cc1ccccc1)C(=O)N1CCC(C(=O)NCC(=O)Nc2ccc(F)cc2)CC1 (stereo not given) | i | 2.8
CC(O)[C@@]1(O)CC[C@H]2[C@@H]3CC[C@H]4C[C@@H](O)CC[C@]4(C)C3=CC[C@@]21C (stereo not given in full) | i | -1.2
CC(C)OC(=O)c1c(NC(=O)c2cnn3c2NC(c2ccccc2)CC3C(F)F)sc2c1CCCC2 (stereo not given) | i | 0.36
CCc1ccc(CN(C)C(=O)C2CCC(=O)N(CC3CCCCC3)C2)cc1 (stereo not given) | i | 1.8
CC(C)(C)c1ccc(S(=O)(=O)Nc2ccc(Cc3ccncc3)cc2)cc1 | i | -0.13

Remaining list, next part:
canonical_smiles | KCNQ2 inh | KCNQ2 inh baseline
Fc1ccc(-c2cn3ccccc3n2)cc1 | i | -1.1
CCOC(=O)CN(C)C(=O)CCc1nnc(-c2ccsc2)o1 | i | 1.1
Cc1cc(C(=O)NC2CCCc3ccccc32)c(C)o1 (stereo not given) | i | 0.03
Cc1cc(NC(=O)COC(=O)c2ccc(F)c(S(=O)(=O)N3CCOCC3)c2)no1 | i | -0.22
CN(CC(=O)Nc1ccc(S(=O)(=O)N2CCCC2)cc1)Cc1ccc(Cl)c(Cl)c1 | i | 2.2
COc1ccc(/C=C/C(=O)NCCN2CCOCC2)cc1OC | i | -0.35
CCN1CCCc2cc(CN(CCN3CCOCC3)C(=S)Nc3ccccc3C)ccc21 | i | -0.5
CCc1cccc(C)c1NC(=S)N(CCN(C)C)C(C)c1ccco1 (stereo not given) | i | 2.6
Cc1c(C)c2ccc(OCC(=O)Nc3ccccn3)cc2oc1=O | i | -1.6
O=C(NCc1ccccc1)c1cccc(Br)n1 | i | -0.38
CCOC(=O)c1[nH]c2ccccc2c1NC(=O)c1ccc(S(=O)(=O)N2CCOCC2)cc1 | i | -1.2
Clc1cc(Br)ccc1OCCOCCN1CCCC1 | i | 0.15
CC(=O)Nc1cc(C(=O)OCC(=O)c2ccccc2)ccc1C | i | 0.01
COCCCNC(=S)Nc1ccc(CC(=O)O)cc1 | i | 1.1
O=C1N(Cc2cccc(Cl)c2)C[C@@H]2C[C@@H](c3ccc4nonc4c3)N3CCC[C@@]123 | i | 1

Further compounds.
canonical_smiles | KCNQ2 inh | KCNQ2 inh baseline
Cc1ccc2c(c1)C(O)(CC(=O)/C=C/C=C/c1ccccc1)C(=O)N2 (stereo not given) | i | -0.78
CC(C)CC(COCc1ccc(C(F)(F)F)cc1)N1CCN(C(=O)c2ccc(C(F)(F)F)cc2)CCC1=O (stereo not given) | i | -0.12
CCc1ccc(OC(=O)c2ccn(CC)n2)cc1 | i | -0.01
Cc1cccc(-n2c(SCC(=O)NC3CCCC3)nnc2-c2ccoc2C)c1 | i | -1.6
O=[N+]([O-])c1ccc(-c2cn3ccccc3n2)cc1 | i | 1.6
Cc1ccc(C(=O)C2CCN(CC(=O)NC3CCCC3)CC2)cc1 | i | -1.5
CCOc1ccc(NS(=O)(=O)c2csc(C(N)=O)c2)cc1 | i | -0.72
CN(CC(=O)Nc1ccccc1Cl)C(=O)c1cccc(S(=O)(=O)N2CCN(c3ccc(F)cc3)CC2)c1 | i | 0.24
Nc1c(Cl)cc(Cl)cc1C(=O)OCC(=O)NC1CC1 | i | -0.06
O=C(C1CCC(CNS(=O)(=O)c2cccc3cccnc23)CC1)N1CCCC1 (stereo not given) | i | -0.37

Three entries picked at random from those above:
canonical_smiles | KCNQ2 inh | KCNQ2 inh baseline
O=S(=O)(NCC(c1ccco1)N1CCc2ccccc2C1)c1ccc(Br)cc1 (stereo not given) | i | 2.7
CCc1ccc(CN(C)C(=O)C2CCC(=O)N(CC3CCCCC3)C2)cc1 (stereo not given) | i | 1.8
O=C1CC(Cc2ccc(Cl)cc2)C(=O)N1c1cc(Cl)ccn1 (stereo not given) | i | 1.5

Only part of the results is shown, so the mix of outcomes need not match the whole.
